Screening data from PubChem.
Methyltransferases: Primary Screen for Target Class Profiling of Small Molecule Inhibitors of Methyltransferases; purified enzyme, MTase-Glo SAH luminescence; hits give low values; calls only at 40 µM; 25,000 tested, 3.9% active; active = -50% or lower on at least one of six enzymes; inconclusive = the cases between; inactive = as a rule above -30% on all six;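 also: enzymes were COMT GAMT GNMT HNMT NNMT and PNMT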
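Each enzyme was reacted with SAM and its substrate, with compounds tested once at 40 uM; SAH formed was read by MTase-Glo luminescence.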
Calls only; i = inactive. % is scaled to controls: 0 for no effect and ±100 for the full control effect. These rows are one share of the data (hit frequency here may not be typical).

SMILES	Methyltransferases
CCC(C(=O)NCCc1cccs1)n1ccc2cc(S(=O)(=O)N3CCCCC3)ccc21 (stereo not given)	i
CN(Cc1cn(-c2ccccc2)nn1)Cc1noc2c1CCCC2	i
O=C(CCCn1nc(-c2ccccc2)c2ccccc21)N1CCN(c2ccccc2)CC1	i
N#Cc1ccc(CN2CCC(N3CCOC3=O)CC2)cc1	i
COc1ccccc1CC(=O)N1CCN(c2cc(-c3cccs3)[nH]n2)CC1	i
Cc1oc(C(O)c2ccccc2)nc1C(=O)Nc1ccc(C(=O)Nc2ccccc2)cc1 (stereo not given)	i
COc1ccc(-c2cc3n(n2)CC(C)(C(=O)NCc2ccccc2)N(c2ccc(C)cc2C)C3=O)cc1 (stereo not given)	i
CCc1ccc(N2C(=O)c3cc4sccc4n3CC2(C)C(=O)NC2CCCCC2)cc1 (stereo not given)	i
Cc1nc(C)c(C(=O)N2CCCC(COc3ccccc3C(=O)N3CCCC3)C2)s1 (stereo not given)	i
COC[C@@H]1CN(S(=O)(=O)c2cnc[nH]2)C[C@H]1c1ccccn1	i
CC(=O)NC[C@@H]1C=C(C)[C@H](Cc2nnc(-c3cncn3C)o2)C[C@H]1C(C)C	i
O=C(Nc1ccccc1)NC1CCCN(c2ccc3nnc(-c4ccccc4)n3n2)C1 (stereo not given)	i
CCCn1c(=O)c2ccc(Cl)cc2n2c(=O)n(CC(=O)Nc3cc(C)cc(C)c3)nc12	i
C[C@]12CC[C@@H]3c4ccc(O)cc4CC[C@H]3[C@@H]1CC[C@@H]2OC(=O)CCC1CCCC1	i
CN1CC(C(=O)NCc2cccs2)NC1=O (stereo not given)	i
O=C(COC(=O)C(Cc1c[nH]c2ccccc12)NC(=O)c1ccc(Br)cc1)c1ccccc1 (stereo not given)	i
Cc1ccccc1OCC(=O)Nc1cccn2nc(-c3cccnc3)nc12	i
CCCNC(=O)c1cc2n(n1)CC(C)(C(=O)NCc1ccc(C)cc1)N(C)C2=O (stereo not given)	i
CCCn1c(=O)c2ccc(C(=O)NC(C)CC)cc2n2c(=O)n(CC(=O)N(C)c3ccccc3)nc12 (stereo not given)	i
CC(=O)N[C@@H](CC(C)C)C(=O)N[C@@H](CCC(=O)O)C(=O)N[C@@H](CCC(=O)O)C(=O)N[C@@H](CC(=O)O)C(=O)Nc1ccc2c(C(F)(F)F)cc(=O)oc2c1	i
Cc1c(Cl)cccc1NC(=O)CN(C)S(=O)(=O)c1ccc2[nH]c3c(c2c1)CCCC3	i
Cc1ccccc1CCN1C(=O)c2ccc(-c3ccco3)n2CC1(C)C(=O)NC1CCCCC1 (stereo not given)	i
CCCC1c2ccc(C)n2CCN1C(=O)Nc1ccc(C)c(Cl)c1 (stereo not given)	i
N#Cc1cccc(CN2CC[C@H](c3nc4ccccc4o3)C2)c1	i
Cc1nc([C@@H]2CN(C(=O)c3sccc3C)C[C@H]2C(N)=O)n[nH]1	i

(next part)
SMILES	Methyltransferases
CN1CCN(C2=Nc3ccccc3Nc3ccc(Cl)cc32)CC1	i
CC1(C(=O)NCc2ccccc2)Cn2c(cc3ccccc32)C(=O)N1Cc1cccc(F)c1 (stereo not given)	i
CC(C)OCCCNC(=O)C1c2c(n(C)c3ccccc23)SCC(=O)N1Cc1ccc2c(c1)OCO2 (stereo not given)	i
CCCn1ncc(C(=O)NCC2(O)CCCNC2)c1C (stereo not given)	i
COc1ccc2cc3n(c2c1)CC(C)(C(=O)NCC1CCCO1)N(Cc1ccc(C)cc1)C3=O (stereo not given)	i
COC(=O)c1ncn2c1C(=O)N(Cc1ccccc1C)C(C)(C(=O)NC1CCCCC1)C2 (stereo not given)	i
OC[C@@H]1CN(Cc2ccc(F)cc2)C[C@H]1c1nc(-c2ccncc2)no1	i
CC1CCC(NC(=O)C2(C)Cn3c(cc4occc43)C(=O)N2CCc2ccc(Cl)cc2)CC1 (stereo not given)	i
COc1cc(-n2cnc3cc(-c4ccc(Cl)cc4)sc3c2=O)ccc1OCCN1CCCC1	i
CCCOc1ccc(CN2C(=O)c3cc4occc4n3CC2(C)C(=O)NC2CCCCC2)cc1 (stereo not given)	i
CC(C(O)c1ccc(O)cc1)N1CCC(Cc2ccccc2)CC1 (stereo not given)	i
CC(=O)Nc1ccccc1NC(=O)CN1CCN(Cc2ncccc2C)CC1	i
COc1ccc(-c2n[nH]n3c2nc(=O)c2ccc(C(=O)NC4CC4)cc23)cc1	i
CCC(C)NC(=O)c1ccc2c(=O)n(C(C)C)c3nn(Cc4cc(C)ccc4C)c(=O)n3c2c1 (stereo not given)	i
NC(=O)C1=CC2C3C=CC2C(OC3=O)O1 (stereo not given)	i
CCNC(=O)N1CC[C@H]2CC(=O)N([C@H](C(N)=O)C(C)C)CC[C@H]2C1	i
CC(C)CNC(=O)c1ccc2c(=O)n(CC(C)C)c3nn(Cc4ccccc4Cl)c(=O)n3c2c1	i
COC(=O)c1ncn2c1C(=O)N(Cc1ccc(OC)c(OC)c1)C(C)(C(=O)NC1CCCCCC1)C2 (stereo not given)	i
O=S(=O)(c1ccccc1F)N1CCC(CCc2nc(C3CCOCC3)no2)CC1	i
CS/C=C/C(=O)O[C@@H]1CCC2=CC(=O)C(=C(C)C)C[C@]2(C)[C@H]1C	i
COc1ccccc1CNC(=O)C1(C)Cn2nc(-c3ccccc3)cc2C(=O)N1Cc1ccccc1OC (stereo not given)	i
O=C(NCCc1ccc(Cl)cc1)c1ccc2c(=O)nc3c(-c4ccccc4F)n[nH]n3c2c1	i
CCN(CC)C(=O)[C@@H](C)C1CC[C@@]2(C)CC[C@H](NC(=O)c3ccncc3)[C@@H](C)[C@@H]2[C@H]1O (stereo not given in full)	i
Cc1ccc(CCNC(=O)c2ncn3c2C(=O)N(C2CC2)C(C)(C(=O)NCc2ccc(F)cc2)C3)cc1 (stereo not given)	i
CCOCCCNC(=O)c1cc2c(=O)[nH]c(-c3ccccc3)cn2n1	i

Carrying on.
SMILES	Methyltransferases
Cc1ccc(C)c(Cn2nc3n(C(C)C)c(=O)c4ccc(C(=O)NC(C)C)cc4n3c2=O)c1	i
CC1(C)CC[C@]2(C(=O)O[C@@H]3O[C@H](CO[C@@H]4O[C@H](CO[C@@H]5O[C@H](CO)[C@H](O)[C@H](O)[C@H]5O)[C@@H](O)[C@H](O)[C@H]4O)[C@@H](O)[C@H](O[C@@H]4O[C@H](CO)[C@@H](O)[C@H](O)[C@H]4O)[C@H]3O)[C@H](O)C[C@]3(C)C(=CCC4[C@@]5(C)CC[C@H](O[C@@H]6OC[C@@H](O)[C@H](O)[C@H]6O)[C@@](C)(C(=O)O)C5CC[C@]43C)[C@@H]2C1 (stereo not given in full)	i
CN1C(=O)c2cc(C(=O)NCCc3ccc(Cl)cc3)nn2CC1(C)C(=O)NC1CCCCC1 (stereo not given)	i
CO[C@]1(NC(=O)CSC(F)F)C(=O)N2C(C(=O)O)=C(CSc3nnnn3CCO)CO[C@H]21	i
COc1cccc(CNC(=O)CNC(=O)C2(C)Cn3c(cc4ccccc43)C(=O)N2C)c1 (stereo not given)	i
CCCN1C(=O)c2cc(-c3ccc(C(C)C)cc3)nn2CC1(C)C(=O)NC1CCCCC1 (stereo not given)	i
COc1ccccc1CN1C(=O)c2cc(-c3ccccc3)nn2CC1(C)C(=O)NCc1ccccc1 (stereo not given)	i
CC(=O)N1CCCC1c1nc(C2CN(S(=O)(=O)c3cccc(C)c3)C2)no1 (stereo not given)	i
CC(C)CCNC(=O)C1(C)Cn2c(ccc2-c2ccco2)C(=O)N1Cc1ccc(Cl)cc1 (stereo not given)	i
C=CCn1c(=O)c2ccc(C(=O)NC(C)CC)cc2n2c(=O)n(CC(=O)Nc3ccccc3F)nc12 (stereo not given)	i
COc1ccc(-c2ccccc2NC(=O)C2CCCN2C(=O)c2cccnc2)cc1 (stereo not given)	i
CCCN1C(=O)c2cc3sccc3n2CC1(C)C(=O)NC1CCCCCCC1 (stereo not given)	i
CC(C)CCNC(=O)C1c2c(n(C)c3ccccc23)SCC(=O)N1Cc1cccs1 (stereo not given)	i
CCCC1c2ccc(C)n2CCN1C(=O)Nc1ccc(F)c(Cl)c1 (stereo not given)	i
Cc1ccc(Cn2c(=O)c3ccc(C(=O)NC4CCCCC4)cc3n3c(=O)n(C)nc23)cc1	i
CC(=O)OC[C@H]1O[C@H](O[C@]2(CO)O[C@H](CO)[C@@H](OC(=O)/C=C/c3ccccc3)[C@@H]2O)[C@H](O)[C@@H](O)[C@@H]1O	i
O=C(CCc1nnc2n(Cc3ccc(F)cc3)c(=O)c3ccccc3n12)Nc1ccc(F)c(F)c1	i
COc1ccc(CN2C(=O)c3cc(-c4ccc(C(C)C)cc4)nn3CC2(C)C(=O)NCCC(C)C)cc1 (stereo not given)	i
CC1CCC(NC(=O)C2(C)Cc3ccccc3C(=O)N2Cc2ccccc2Cl)CC1 (stereo not given)	i
CC1(C(=O)NC2CCCCC2)Cn2c(ccc2-c2ccco2)C(=O)N1Cc1cccc(F)c1 (stereo not given)	i
Cc1cc(C(C)(C)C)c(O)c(C)c1CC1=NCCN1	i
O=C(C[C@@H]1O[C@H](CNC(=O)C2CC2)[C@@H](O)[C@H]1O)Nc1ccccc1	i
CC1(C)CC[C@]2(C(=O)O[C@@H]3O[C@H](CO)[C@@H](O)[C@H](O)[C@H]3O)[C@H](O)C[C@]3(C)C(=CCC4[C@@]5(C)CC[C@H](O[C@@H]6OC[C@@H](O)[C@H](O)[C@H]6O)[C@@](C)(C(=O)O)C5CC[C@]43C)[C@@H]2C1 (stereo not given in full)	i
Cc1ccc(C2(O)CCN(C(=O)CCC3NC(=O)NC3=O)CC2)nc1 (stereo not given)	i
Cc1ccc(Cl)cc1NC(=O)Cn1nc2n(Cc3ccc(F)cc3)c(=O)c3ccccc3n2c1=O	i

In the list so far, 5 contain a furan ring, fused or not:
SMILES	Methyltransferases
Cc1ccccc1CCN1C(=O)c2ccc(-c3ccco3)n2CC1(C)C(=O)NC1CCCCC1 (stereo not given)	i
CC1CCC(NC(=O)C2(C)Cn3c(cc4occc43)C(=O)N2CCc2ccc(Cl)cc2)CC1 (stereo not given)	i
CCCOc1ccc(CN2C(=O)c3cc4occc4n3CC2(C)C(=O)NC2CCCCC2)cc1 (stereo not given)	i
CC(C)CCNC(=O)C1(C)Cn2c(ccc2-c2ccco2)C(=O)N1Cc1ccc(Cl)cc1 (stereo not given)	i
CC1(C(=O)NC2CCCCC2)Cn2c(ccc2-c2ccco2)C(=O)N1Cc1cccc(F)c1 (stereo not given)	i

Following part:
SMILES	Methyltransferases
CC(C)C[C@H](NC(=O)CNC(=O)OCc1ccccc1)C(=O)N[C@@H](Cc1ccccc1)C(=O)CCl	i
O=C(Nc1ccccc1Cl)N1Cc2c(sc3c2CCCC3)-n2cccc2C1c1ccccc1 (stereo not given)	i
CC[C@@H](c1ccc(F)c(F)c1)n1c(C(=O)OC)c(-c2ccno2)[nH]c1=S	i
CCc1cc2c(cc3n2CC(C)(C(=O)NC2CCCCCC2)N(Cc2ccc(Cl)cc2)C3=O)s1 (stereo not given)	i
COc1cccc(N2CCN(C(=O)c3ccc4c(=O)nc5c(-c6cccc(F)c6)n[nH]n5c4c3)CC2)c1	i
CN1C(=O)c2cc(C(=O)NCc3ccc4c(c3)OCO4)nn2CC1(C)C(=O)NC1CCCCCC1 (stereo not given)	i
Cc1nn(C)c2c(=O)n(CC(=O)N3CCN(c4ccccn4)CC3)ccc12	i
C=C1CC2OC(=O)C(=C)C2C(O)/C=C(\C)CCC1O (stereo not given)	i
CC(CN)(c1ccccn1)N1CCOCC1 (stereo not given)	i
COc1ccccc1-c1ccc(C(=O)N2CCC(NC(=O)Nc3ccc(Cl)cc3)CC2)cc1	i
COc1ccc2cc3n(c2c1)CC(C)(C(=O)NC1CCCC1)N(Cc1ccccc1OC)C3=O (stereo not given)	i
COC(=O)c1cc2n(n1)CC(C)(C(=O)NC1CCCCC1)N(Cc1cccc(OC)c1)C2=O (stereo not given)	i
O=C1NC(=NC2CCCC2)C2(CCCN([S+](=O)([O-])c3ccccc3)C2)N1c1cccnc1 (stereo not given)	i
Clc1ccc(-c2nnn3c2nc(NC2CCCC2)c2ccccc23)cc1	i
O=C(NCc1nn(Cc2ccccc2)c2ccccc12)c1ccccc1C(F)(F)F	i
C=C/C=C/[C@@H]1OC[C@H](/C=C/C=C/C)[C@H]1O	i
CCCn1c(=O)c2ccc(C(=O)NC(C)C)cc2n2c(=O)n(CC(=O)Nc3ccc(C)c(C)c3)nc12	i
COCCCNC(=O)C1(C)Cn2nc(-c3ccccc3)cc2C(=O)N1c1ccc(C)c(Cl)c1 (stereo not given)	i
CN(C)[C@@H]1CN(C(=O)c2ccc(C#N)cc2)C[C@H]1CO	i
CCCn1c(=O)c2ccccc2n2c(=O)n(CC(=O)Nc3ccc(Cl)cc3)nc12	i
CC(=O)O[C@H]1C[C@@]2(C)[C@@H](C[C@@H](O)[C@H]3[C@@]4(C)CC[C@@H](O)[C@@H](C)[C@@H]4CC[C@@]32C)/C1=C(\CCC=C(C)C)C(=O)O	i
CCCCCCCCCCCCCCCCCCN(CCCCCCCCCCCCCCCCCC)CCCN(CCO)CCO	i
CC(C)CCNC(=O)C1(C)Cn2c(nc3ccccc32)C(=O)N1Cc1ccccc1Cl (stereo not given)	i

Arranged by length of the SMILES (ascending): some entries from above
SMILES	Methyltransferases
CCCN1C(=O)c2cc3sccc3n2CC1(C)C(=O)NC1CCCCCCC1 (stereo not given)	i
CC(C)CCNC(=O)C1c2c(n(C)c3ccccc23)SCC(=O)N1Cc1cccs1 (stereo not given)	i
O=C(Nc1ccccc1Cl)N1Cc2c(sc3c2CCCC3)-n2cccc2C1c1ccccc1 (stereo not given)	i
Cc1ccc(Cn2c(=O)c3ccc(C(=O)NC4CCCCC4)cc3n3c(=O)n(C)nc23)cc1	i
COC(=O)c1ncn2c1C(=O)N(Cc1ccc(OC)c(OC)c1)C(C)(C(=O)NC1CCCCCC1)C2 (stereo not given)	i
Cc1ccc(CCNC(=O)c2ncn3c2C(=O)N(C2CC2)C(C)(C(=O)NCc2ccc(F)cc2)C3)cc1 (stereo not given)	i
